Yeast UUG start – modulators of yeast start codon fidelity, primary screen, whole organism, S. cerevisiae, single point, plate reader. activity score, % at 18.7 µM. S. cerevisiae UUG-firefly luciferase reporter, luminescence/redox ratio. AID 602363, 2012. 350,000 tested, 0.13% active;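 active = replicate mean at a twofold rise or more, about +100% in these data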;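 also: firefly luciferase made from a UUG start codon reports start codon fidelity; reporter light over untreated wells divided by growth signal over untreated wells; some hits fall short of that in this replicate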
Env fusion inh – inhibitors of HIV-1 Env-driven cell-cell fusion, primary screen, HeLa-JRFL effector, CEM21 target cells, luciferase; inhibition, % at 12.3 µM; 360,000 tested, 1.1% active;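 active = mean replicate inhibition score of at least 50 and every replicate individually at or above 50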;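 also: 0% = plate neutral controls and 100% = maraviroc near 300 nM; one replicate is shown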
PABP FP inh – PABP poly(A) RNA binding inhibitors, primary screen, biochemical, fluorescence polarization, uHTS; Polyadenylate-binding protein 1 (Homo sapiens), P11940; inhibition, % at 35 µM; 290,000 tested, 1% active; AID 2014, 2009;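 active = 50% or more with normal probe brightness, or confirmed in later tests; about a fifth of its hits are not listed in these tables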;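 also: calls also rest on retests at 20 µM and on dose response follow-up; controls were probe without protein and protein plus probe with vehicle; some compounds called inactive have numbers as strong as hits; many hits fall short of the cut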
Target sequence (P11940 whole entry, looked up): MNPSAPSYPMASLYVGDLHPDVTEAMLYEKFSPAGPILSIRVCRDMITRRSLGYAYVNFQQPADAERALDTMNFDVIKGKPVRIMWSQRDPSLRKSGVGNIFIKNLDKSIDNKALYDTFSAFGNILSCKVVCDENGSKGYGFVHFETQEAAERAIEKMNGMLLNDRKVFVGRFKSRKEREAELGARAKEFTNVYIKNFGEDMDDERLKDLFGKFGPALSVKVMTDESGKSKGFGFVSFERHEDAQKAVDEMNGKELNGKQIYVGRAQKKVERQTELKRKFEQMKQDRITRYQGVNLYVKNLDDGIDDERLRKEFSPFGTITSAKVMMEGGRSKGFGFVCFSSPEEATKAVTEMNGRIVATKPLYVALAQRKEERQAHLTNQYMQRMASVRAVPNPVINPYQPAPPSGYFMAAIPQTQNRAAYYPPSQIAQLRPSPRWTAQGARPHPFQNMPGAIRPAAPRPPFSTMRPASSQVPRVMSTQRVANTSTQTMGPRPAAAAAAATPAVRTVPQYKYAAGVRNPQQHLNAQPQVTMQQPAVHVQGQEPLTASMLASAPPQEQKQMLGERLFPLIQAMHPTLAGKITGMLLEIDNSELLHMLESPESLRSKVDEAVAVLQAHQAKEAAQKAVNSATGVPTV
eIF4H inh – human eIF4H binding inhibitors, primary screen, translation initiation inhibitor project, biochemical, uHTS, fluorescence polarization. 290,000 tested, 0.94% active. Eukaryotic translation initiation factor 4H (Homo sapiens), Q15056. AID 2012, 2009. eIF4H fluorescence polarization binding assay. inhibition, % at 35 µM;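 active = 50% or more with normal probe brightness, or confirmed in later tests; about a fifth of its hits are not listed in these tables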;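 also: calls also rest on retests at 20 µM and on dose response follow-up; 0% = protein and probe with vehicle and 100% = probe without protein; strong numbers were not always called active; many hits fall short of the cut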
Rce1 inhib – yeast Rce1p protease inhibitors, primary screen, biochemical, fluorescence, cell-free homogeneous | yeast membranes, quenched prenylated peptide cleavage fluorescence | calls only | 290,000 tested, 0.27% active | AID 2563, 2010;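 active = fall in fluorescence gain of 50% or more versus controls, with final raw signal at or below 3038400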;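 also: plate controls were neutral control wells for no effect and wells lacking membranes for full effect; tested at 10 µM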
Target sequence (Q03530 whole entry, looked up): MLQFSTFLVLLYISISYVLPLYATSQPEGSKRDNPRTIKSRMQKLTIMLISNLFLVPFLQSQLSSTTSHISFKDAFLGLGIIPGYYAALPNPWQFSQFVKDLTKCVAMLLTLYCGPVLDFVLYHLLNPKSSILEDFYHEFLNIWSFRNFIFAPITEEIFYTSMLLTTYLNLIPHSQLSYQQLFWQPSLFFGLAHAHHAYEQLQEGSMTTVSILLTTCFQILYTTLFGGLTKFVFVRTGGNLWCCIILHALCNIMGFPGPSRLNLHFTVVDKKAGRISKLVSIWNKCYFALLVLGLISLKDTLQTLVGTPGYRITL
CSC inhib – cancer stem cell viability inhibitors, primary screen, luminescence; cancer stem cell-like cells viability; 300,000 tested, 1.1% active; inhibition, % at 7.5 µM;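 active = mean at 75% or more and at least half the replicates too; tested in HMLE shEcad cells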;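 also: 0% = median of negative and 100% = median of positive control wells; the first replicate is given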
MT1-MMP act inh – blockers of MT1-MMP proenzyme processing, primary screen, HT1080 RFP-PRO-GFP cells, GFP/RFP fluorescence; Matrix metalloproteinase-14 (Homo sapiens), P50281; GFP/RFP ratio fluorescence, overnight; percent of plate control window, DMSO zero; GFP/RFP ratio change, % at 20 µM; 360,000 tested, 0.061% active; AID 651647, 2012;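 active = GFP/RFP ratio change of at least 30% with cell ATP level not reduced by more than half and red fluorescence within 50% of control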; also: strong numbers were not always called active
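Compound: 20 µM single dose, 1% DMSO / System: HT1080 RFP-PRO-GFP cells / Controls: DMSO and RFP-L50D-GFP cell wells / Read-out basis: GFP/RFP fluorescence ratio / Schedule: overnight compound exposure at 37 °C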
eIF4H inh retest – further read-out of eIF4H inh, marked with its call; inhibition, %; compound at 20 µM; confirmation average;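 mean of two retest wells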
PABP FP inh retest – also measured in PABP FP inh; calls as there; inhibition, %; compound at 20 µM; confirmation repeats;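 mean of two retest wells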
MT1-MMP act inh RFP – also measured in MT1-MMP act inh; calls as there; RFP signal change, %; measured here: RFP expression control read;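 0 = vehicle wells; hits needed this value within 50% of zero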
An asterisk follows results filed as active; i = inactive; x = not tested or not shown.

SMILES	Yeast UUG start	Env fusion inh	PABP FP inh	eIF4H inh	Rce1 inhib	CSC inhib	MT1-MMP act inh	MT1-MMP act inh RFP	others
CC(=O)c1c(C)[nH]c(C(=O)OCC(=O)Nc2nnc(-c3ccccc3)o2)c1C	6	-1	x	x	x	6	-1	2
CCc1ccc(C(=O)NNC(=S)Nc2ccc(S(N)(=O)=O)cc2)s1	x	-7	4	18	i	-11	1	2
CCC(CC)C(=O)NCCc1ccc(OC)c(OC)c1	-15	-29	-1	-11	x	-15	-1	2
S=C(NCC1CCCO1)NC1CCCCC1 (stereo not drawn)	x	0	3	-4	i	-13	2	5
COc1ccc(C=O)cc1COc1ccc([N+](=O)[O-])c(C)c1	-8	-12	-12	8	i	-15	-4	-3
COCCSc1nnc(NC(=O)c2ccc3c(c2)OCO3)s1	x	-24	4	-14	i	1	2	2
COc1ccc(C(=O)Nc2ccc(C(=O)Nc3cccc(C)c3)cc2)cc1	-5	x	-4	2	i	-5	0	-4
Cc1ccc(-c2cc(C(F)(F)F)c(C#N)c(SCCC#N)n2)o1	2	x	17	-14	i	-2	-12	-4
O=C(COc1ccccc1)N=C1SC2CS(=O)(=O)CC2N1Cc1ccccc1 (stereo not drawn)	-14	15	-3	-1	i	-4	-2	3
CC(C)(C)OC(=O)N[C@@H](Cc1ccccc1)C(=O)N1CCC(C(=O)NCC(=O)O)CC1	-3	-5	-8	-6	i	-14	-2	2
Cc1onc(-c2ccccc2Cl)c1-c1nc(-c2ccccn2)no1	0	-50	0	4	i	10	0	-3
CCCc1[nH]nc2c1C(C1CC=CCC1)C(C#N)=C(N)O2 (stereo not drawn)	x	-43	3	-4	i	32	1	1
O=C(OCCN1CCCCC1)c1c[nH]c2ccccc12	-42	-5	x	x	x	-7	4	-1
C/C(N)=C(/C#N)C(=O)CSc1nnnn1-c1ccccc1	x	x	22	27	i	-10	-1	1
CCCCC(=O)Nc1cccc(NC(=S)NC(=O)COc2ccccc2Cl)c1	x	10	7	-7	i	13	2	0
CCNC(=O)C1(C)CCN(C(=O)c2cc(F)cc(F)c2)C1 (stereo not drawn)	-21	-8	x	x	x	x	-2	5
CCn1nnnc1SCC(=O)c1cc(Cl)ccc1OC	x	1	1	-1	i	-12	1	2
CCc1cc(=O)oc2cc(OCC(=O)NCCCN3CCCC3=O)c(Cl)cc12	6	3	2	-6	i	-12	4	2
O=C(CN1C(=O)c2ccccc2C1=O)NCC1COc2ccccc2O1 (stereo not drawn)	-14	x	4	-7	i	15	0	2
CCNc1nc(N)c(C(=O)C23CC4CC(CC(C4)C2)C3)s1	-22	28	-1	-4	i	23	-1	-1
CCOC(=O)Cc1csc(NS(=O)(=O)c2ccc3ccccc3c2)n1	2	4	-3	-5	i	-7	-3	0
Cc1ccc(S(=O)(=O)N2CCC(C(=O)N[C@H](C(=O)NCc3ccco3)C(C)C)CC2)cc1	-15	6	32	2	x	-10	1	-3
CC(C)Cn1nnc2c(=O)oc3ccccc3c21	4	-18	0	-7	i	x	5	-3
Fc1ccc(-c2nnc3ccccn23)cc1	x	22	15	-7	i	x	2	5
CC(=O)NC12CC3CC(C1)CC(C(=O)N1CCN(S(=O)(=O)c4cccc(C(F)(F)F)c4)CC1)(C3)C2	x	10	x	x	i	x	-3	-4
OCC1(Cc2cccc(Cl)c2)CCCN(Cc2cn[nH]c2C2CCCCC2)C1 (stereo not drawn)	x	13	-12	2	i	-14	-7	-5
CC(NC(=O)NCc1cccnc1)(C(F)(F)F)C(F)(F)F	-11	x	0	-2	i	2	-3	2
COc1ccc(OC)c(/C=C/C(=O)Nc2cccc(S(=O)(=O)N3CCCC3)c2)c1	x	3	-1	0	i	-7	0	-7
CSc1nnc(Cn2c(=O)sc3ccccc32)n1C	-15	-107	-5	-4	i	-7	-1	4
N/C(=N/S(=O)(=O)c1ccccc1)c1cccc([N+](=O)[O-])c1	-13	-1	11	1	i	6	1	-12
CC(=O)c1cccc(Nc2ccc(Br)cc2)c1	-11	-85	x	x	x	x	2	-4
Cc1ccccc1NC1C=CS(=O)(=O)C1 (stereo not drawn)	0	x	-1	4	i	-6	-1	1
COc1ccc(NS(=O)(=O)c2ccc(OCC(=O)N3CCCC3)cc2)cc1	4	16	3	-4	i	-5	1	-5
CCOC(=O)C1CCN(C(=O)C2CCN(c3ncnc4c3nc3n4CCCCC3)CC2)CC1	-13	4	-4	-10	i	-8	2	2
Cc1noc(C)c1COC(=O)COc1ccc(-c2ccccc2)cc1	-15	-3	4	-7	i	-11	1	0
CCCNS(=O)(=O)c1ccc(OCC(=O)NCC2CCCO2)cc1 (stereo not drawn)	-3	-2	-10	-4	i	6	-3	1
CC[C@@]1(C(=O)OC)N[C@H](CN(C)C(C)=O)[C@@H]2C(=O)N(C)C(=O)[C@@H]21	-2	0	x	x	x	x	4	11
CC(c1ccccc1F)n1cc(C(=O)NCCCn2ccnc2)nn1 (stereo not drawn)	-17	x	5	3	i	47	1	14
COCCNC(=S)N/N=C(\C)CCc1ccc2c(c1)OCO2	-31	-5	-3	-7	i	-9	-3	3
S=c1[nH]nc(NC2CCCCC2)s1	-16	4	x	x	x	x	0	0
NC(=O)CCN1CCN(S(=O)(=O)/C=C/c2ccccc2)CC1	-10	-21	9	-8	i	-2	4	4
COCCNC(=O)C(c1ccc(C)o1)N(Cc1ccco1)C(=O)c1snc(C(N)=O)c1N (stereo not drawn)	6	x	1	11	x	-16	0	4
Cc1cc(C)cc(N(CCC#N)C(=O)COC(=O)c2ccc(OCc3c(C)noc3C)cc2)c1	x	-27	x	x	i	-4	4	-1
COC(=O)c1ccc(NC(=O)CCN2C(=O)CSC2=O)cc1	x	-6	-2	-10	i	-1	1	3
CCC(C)(C)n1nnnc1C(c1ccccc1OC)N1CCSCC1 (stereo not drawn)	-6	x	20	-7	i	x	3	1
CCn1cc(C(=O)NCCCN2CCN(C)CC2)c(=O)c2cc(S(=O)(=O)N3CCc4ccccc4C3)ccc21	x	0	-12	-13	i	2	-1	0
COc1ccc2cc(C(=O)N3CCN(Cc4ccc5c(c4)OCO5)CC3)[nH]c2c1	12	-20	-9	-15	i	-9	-1	-23
O=c1[nH]c(N2CCN(c3ccccc3)CC2)nc2c1CCC2	-5	x	2	8	i	-2	5	2
COc1ccc(OC)c(S(=O)(=O)Nc2cnc3ccccc3c2)c1	-15	19	6	3	i	0	-1	-2
C/C(=N\NC(N)=S)C12CC3CC(CC(C3)C1)C2	x	x	9	-13	i	4	-6	-10
O=C(COc1ccc2c3c(c(=O)oc2c1)CCC3)N1CCN(c2ccc(F)cc2)CC1	-9	-21	-6	-2	i	-5	-4	-1
N#Cc1c(NC(=S)NC(=O)c2ccccc2)sc2c1CCC2	-17	-54	5	28	i	5	-1	3
Cc1c(Cl)cccc1NC(=O)CCC(=O)c1cccs1	-12	10	5	-3	i	x	-3	-3
CCCCCC(=O)N1C[C@H](n2cc(-c3ccc(F)cc3)nn2)[C@@H](O)C[C@@H]1c1ccc(C)cc1	0	1	x	x	x	x	-1	-3
O=C(COC(=O)/C=C/c1ccccc1)NC1CCCCCC1	0	-18	x	x	x	x	-1	0
Cc1cccc(NC(=O)c2ccc(Cl)c(S(=O)(=O)N3CCCCC3)c2)n1	-17	3	x	x	i	-6	2	-10
COC(=O)c1cc(Br)c(=O)n(CC(C)C)c1	-17	x	9	8	i	x	-2	-1
COC(=O)c1[nH]c2ccccc2c1NC(=O)c1c(F)cccc1F	x	0	-2	-8	i	6	1	2
CCN1C(=O)CSC1=Nc1ccccc1Cl	-7	-4	14	-9	i	-8	-2	0
Cc1csc(=O)n1CC(=O)OCC(=O)NC(C)c1ccc(F)cc1 (stereo not drawn)	-10	-2	x	x	x	x	-1	2

Ordered by count of non-hydrogen atoms (high to low): part of the list above.
SMILES	Yeast UUG start	Env fusion inh	PABP FP inh	eIF4H inh	Rce1 inhib	CSC inhib	MT1-MMP act inh	MT1-MMP act inh RFP	others
CCn1cc(C(=O)NCCCN2CCN(C)CC2)c(=O)c2cc(S(=O)(=O)N3CCc4ccccc4C3)ccc21	x	0	-12	-13	i	2	-1	0
Cc1cc(C)cc(N(CCC#N)C(=O)COC(=O)c2ccc(OCc3c(C)noc3C)cc2)c1	x	-27	x	x	i	-4	4	-1
CCCCCC(=O)N1C[C@H](n2cc(-c3ccc(F)cc3)nn2)[C@@H](O)C[C@@H]1c1ccc(C)cc1	0	1	x	x	x	x	-1	-3
COCCNC(=O)C(c1ccc(C)o1)N(Cc1ccco1)C(=O)c1snc(C(N)=O)c1N (stereo not drawn)	6	x	1	11	x	-16	0	4
O=C(COc1ccc2c3c(c(=O)oc2c1)CCC3)N1CCN(c2ccc(F)cc2)CC1	-9	-21	-6	-2	i	-5	-4	-1
COc1ccc2cc(C(=O)N3CCN(Cc4ccc5c(c4)OCO5)CC3)[nH]c2c1	12	-20	-9	-15	i	-9	-1	-23
Cc1cccc(NC(=O)c2ccc(Cl)c(S(=O)(=O)N3CCCCC3)c2)n1	-17	3	x	x	i	-6	2	-10
CCC(C)(C)n1nnnc1C(c1ccccc1OC)N1CCSCC1 (stereo not drawn)	-6	x	20	-7	i	x	3	1
Cc1csc(=O)n1CC(=O)OCC(=O)NC(C)c1ccc(F)cc1 (stereo not drawn)	-10	-2	x	x	x	x	-1	2
NC(=O)CCN1CCN(S(=O)(=O)/C=C/c2ccccc2)CC1	-10	-21	9	-8	i	-2	4	4
Cc1c(Cl)cccc1NC(=O)CCC(=O)c1cccs1	-12	10	5	-3	i	x	-3	-3
C/C(=N\NC(N)=S)C12CC3CC(CC(C3)C1)C2	x	x	9	-13	i	4	-6	-10
CCN1C(=O)CSC1=Nc1ccccc1Cl	-7	-4	14	-9	i	-8	-2	0

Additional entries:
SMILES	Yeast UUG start	Env fusion inh	PABP FP inh	eIF4H inh	Rce1 inhib	CSC inhib	MT1-MMP act inh	MT1-MMP act inh RFP	others
O=C1CSC(c2ccccn2)N1c1ccccc1F (stereo not drawn)	x	2	-3	93	i	-14	1	-2	eIF4H inh retest=-12;PABP FP inh retest=8
CCn1c(/C=C/N(C)c2ccccc2)[n+](CC)c2ccc(Cl)cc21	7	70*	-7	-6	i	6	13	-8
Cc1cc(C)c(NC(=O)COc2ccc(-n3cnnn3)cc2)c(C)c1	-13	14	-2	-9	i	2	-2	0
Cc1ccnc(NS(=O)(=O)c2cc(C(F)(F)F)ccc2Cl)c1	x	14	6	1	i	-22	x	x
O=C(Nc1ncc(Cc2cccc([N+](=O)[O-])c2)s1)c1ccco1	x	-5	6	0	i	97*	2	-4
COc1ccc(-c2cc3nc(C)c(CCC(=O)NCc4ccco4)c(C)n3n2)c(OC)c1	-7	-45	2	1	i	x	5	-4
CC(C)Cn1nc(C(=O)Nc2nnc(C3CC3)s2)c2ccccc2c1=O	25	x	x	x	x	11	-8	-1

A portion of the library (hit frequency here may not be typical).
